# Screening results deposited in PubChem by National Center for Advancing Translational Sciences (NCATS).
# Six1-Eya2 blk – Six1/Eya2 interaction inhibition | activity change, % (concentration not given with the values) | AlphaScreen GST-Six1/His-Eya2 binding, biochemical; stronger effect = lower value; control for the full effect not named in the record | 360,000 tested, 0.56% active | AID 651725; in the data active = activity change below about -65%; inconclusive = about -30% to -65%; inactive = above about -30%; also: % is scaled to controls: 0 for no effect and ±100 for the full control effect
#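 AlphaScreen luminescence read after one hour at 37 °C in darkness. Pin-transferred compounds met GST-Six1 and His-Eya2 protein (5X stock 250 nM/500 nM) plus glutathione donor and Ni-chelate acceptor beads (5X, 50 ug/mL).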
# CtBP-E1A inh – inhibitors of CtBP/E1A interaction; AlphaScreen GST-E1A/His-CtBP binding, 1536-well; stronger effect = lower value; control for the full effect not named in the record; activity change, % (test concentration not listed); AID 651724; 340,000 tested, 0.49% active; in the data active means activity change below about -65%; inconclusive means about -30% to -65%; inactive means above about -30%; also: % is scaled to controls: 0 for no effect and ±100 for the full control effect; compound concentration not given in the record
#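 Homogeneous bead-based format: GST-tagged E1A captured on glutathione donor beads, His-tagged CtBP on nickel acceptor beads; compounds precede bead addition by 2 h at 37 °C.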
# TRPML1 agonist – human mucolipin-1 channel agonism; Q9GZU1; TRPML1-expressing cells, Ca2+ dye fluorescence, FDSS; host cell line not named in the record; reference of the full effect not given here; activation, % (concentration not given with the values); 410,000 tested, 0.12% active; AID 624414; in the data active = activation above about 50%; inconclusive = about 30% to 50%; inactive = below about 30%; also: 0% is about no effect; the text of the record puts the active cut at 80%
# Target sequence (Q9GZU1 whole entry, looked up): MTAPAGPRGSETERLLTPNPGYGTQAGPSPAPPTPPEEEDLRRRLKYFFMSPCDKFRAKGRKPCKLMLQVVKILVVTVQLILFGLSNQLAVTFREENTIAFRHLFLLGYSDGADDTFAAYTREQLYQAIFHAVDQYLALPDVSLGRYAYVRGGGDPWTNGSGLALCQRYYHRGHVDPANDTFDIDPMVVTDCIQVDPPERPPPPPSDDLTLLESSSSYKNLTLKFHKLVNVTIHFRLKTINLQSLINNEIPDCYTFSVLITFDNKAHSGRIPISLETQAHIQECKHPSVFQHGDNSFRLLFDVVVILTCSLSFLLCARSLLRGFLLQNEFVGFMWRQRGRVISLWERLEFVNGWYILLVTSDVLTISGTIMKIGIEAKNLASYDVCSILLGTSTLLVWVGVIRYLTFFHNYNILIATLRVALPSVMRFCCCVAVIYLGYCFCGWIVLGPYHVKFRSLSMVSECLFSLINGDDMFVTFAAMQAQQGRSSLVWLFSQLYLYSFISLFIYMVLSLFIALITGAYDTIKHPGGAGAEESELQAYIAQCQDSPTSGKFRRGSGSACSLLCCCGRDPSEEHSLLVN
#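 TRPML1-DL cells, Tet-induced overnight (~16 h, 37 degrees C), loaded 45-90 min at room temperature with Ca8 no-wash calcium dye plus quencher. FDSS fluorescence: 10 s baseline, compound pin-transfer, 110 s agonist read, then EC80 54-4 (4uM final) and 110 s antagonist read.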
# PINK1 modulator – PINK1 expression modulation | 410,000 tested, 0.2% active | Potency, µM (titrated, usually from 76.6 µM), inactives show at the highest dose activation (PINK1 increase), usual class: activators | PINK1 immunofluorescence, high-content cytometry, 24 h; active = well fitted activation curve with a large enough effect; inconclusive = small, poorly fitted or top-dose-only effect; inactive = flat fitted curve, though single readings scatter; cell line not stated here;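 also: potency is read from the fitted curve at half-maximal effect; % of control where 0% means no effect; nearly all actives have a fitted effect of over 65% in size; a mitochondrial uncoupler was the plate control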
#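 Compound titrations (5 concentrations, 24 h) on a stable cell line; DMSO and CCCP controls. Endpoint: fixed-cell PINK1 immunofluorescence with mitochondrial, cell and nuclear markers, scanned by microplate cytometer.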
# D2 ag – human D2 receptor agonism in beta-arrestin assay; DiscoveRx PathHunter D2 beta-arrestin, luminescence, 90 min; 100% = 57 uM dopamine signal; 360,000 tested, 0.084% active; activation, % (test concentration not listed); AID 624465; in the data active = activation above about 40%; inconclusive = about 15% to 40%; inactive = below about 15%; also: compound concentration not given in the record; the text of the record calls up to 30% inactive
# Target sequence (P14416 whole entry, looked up): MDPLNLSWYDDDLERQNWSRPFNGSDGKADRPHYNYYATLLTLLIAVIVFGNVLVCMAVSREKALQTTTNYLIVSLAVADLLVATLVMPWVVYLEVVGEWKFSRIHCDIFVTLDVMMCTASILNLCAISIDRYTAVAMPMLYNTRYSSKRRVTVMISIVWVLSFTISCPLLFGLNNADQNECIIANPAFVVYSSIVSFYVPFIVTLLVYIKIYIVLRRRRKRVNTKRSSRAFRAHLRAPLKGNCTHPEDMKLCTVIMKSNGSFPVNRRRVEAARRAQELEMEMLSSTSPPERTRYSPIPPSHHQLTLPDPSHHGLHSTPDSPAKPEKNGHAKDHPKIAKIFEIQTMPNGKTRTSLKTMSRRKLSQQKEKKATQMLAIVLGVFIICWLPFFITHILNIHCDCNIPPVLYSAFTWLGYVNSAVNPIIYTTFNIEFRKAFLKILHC
#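 Agonist mode: compounds alone added to overnight-plated D2 PathHunter cells for 90 min at 37 C, with 57 uM final dopamine (EC100) defining full response. Beta-arrestin recruitment detected by chemiluminescent reagent, read after 1 h at ambient temperature.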
# TRPML1 blocker – human mucolipin-1 channel inhibition. Q9GZU1. TRPML1-inducible cells, Ca2+ dye fluorescence, FDSS; stronger effect = lower value; inhibition of EC80 agonist-evoked calcium signal. activity change, negative = inhibition, % (no concentration beside the values). 390,000 tested, 0.02% active. AID 624415; in the data active means activity change below about -50%; inconclusive means about -30% to -50%; inactive means above about -30%;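 also: stimulus is agonist 54-4 at its EC80 concentration; % is scaled to controls: 0 for no effect and ±100 for the full control effect; compound concentration not given in the record; the text of the record puts the active cut at -80%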
#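 Tet-induced TRPML1-DL cells loaded with Ca8 no-wash calcium dye were read kinetically on FDSS. Compound addition was followed by EC80 agonist 54-4 (4 uM final); inhibition was read over 110 s.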
# An asterisk follows results filed as active; ? = inconclusive; . = not tested or not shown; & = joins results of further samples; [ ] = remark or other dose.
SMILES,Six1-Eya2 blk,CtBP-E1A inh,TRPML1 agonist,PINK1 modulator,D2 ag,TRPML1 blocker
O=C(N=c1ccn(-c2nc3ccccc3nc2NS(=O)(=O)c2ccccc2)cc1)c1ccccc1Cl,-4.8,.,8.6,2.8%,-7.0,-10.3
N#C/C(=C\c1c(N2CCC(C(N)=O)CC2)nc2ccccn2c1=O)C(=O)NC1CCCCC1,2.7,.,4.0,3.6%,-4.3,-14.4
CCOC(=O)C1CCC(CN(Cc2ccc(OC)cc2)S(=O)(=O)c2ccc(C)cc2)CC1 (stereo not given),.,.,0.7,3.8%,.,50.7
Cc1ccc(-c2nc(CCNC(=O)C(=O)Nc3ccc(C)cc3C)cs2)cc1,.,.,3.9,-1.3%,.,-12.1
Nc1cc(Cl)ccc1Oc1ccc2ccccc2c1,2.3,-0.1,-0.3,13.2%[38.3 µM],0.9,19.7
O=C(CCNS(=O)(=O)c1ccc(Cl)cc1)N1CCCCCC1,-0.4,8.0,0.6,-1.9%,-3.3,-24.6
CCn1nc(C)c2c(-c3ccccc3)cc(=O)n(C(C)C(=O)Nc3ccc(OC)c(OC)c3)c21 (stereo not given),.,.,1.3,3.7%,.,4.6
COc1ccc(NC(=O)c2ccc(-c3nc(CSc4ccc(C)cc4)c(C)o3)cc2)cc1Cl,.,.,0.6,9.6%,.,-13.7
COc1ccc(CN2C(=O)c3ccc(C(=O)O)cc3C2=O)cc1,0.9,2.6,.,0.1%,-8.4,.
Cc1cc(N)c2cc(NC(=O)/C=C/c3ccccc3Cl)ccc2n1,-7.5,-6.5,-0.6,-1.2%,-1.6,-9.7
COC(=O)Nc1ccc(S(=O)(=O)N2CCC(C(=O)N3CCCCC3C)CC2)cc1 (stereo not given),-2.6,-7.0,-1.3,-0.6%,-2.7,-4.7
Oc1ccc(Br)cc1C=Nc1ccc2c3c(cccc13)CC2,-5.5,-6.4,7.0,5.7%,-9.5,-20.6
COc1ccc(/C=C2\Sc3ccc(C(=O)N4CCOCC4)cc3N(C)C2=O)cc1,-3.1,.,0.6,-1.0%,1.8,17.8
CSc1nnc(SCC(=O)NC(=O)c2ccccc2)s1,1.5,2.4,-1.1,-0.2%,1.7,10.4
Cc1c(C(=O)c2ccc(N(C)C)cc2)c2ccccn2c1CCC#N,-20.8,-28.9,4.3,2.9%,-3.0,1.5
C#Cc1ccc([C@H]2C=C(C(=O)NC3CC3)O[C@@H](OCC)[C@@H]2CCCO)cc1,-1.7,4.5,-1.0,1.6%,-0.3,0.8
CC(C)(C)c1ccc(C(=O)NC(Cc2c[nH]c3ccccc23)C(=O)OCC(=O)c2ccc(Cl)cc2)cc1 (stereo not given),.,.,0.5,-0.3%,.,5.4
COc1cc(/C=C/C(=O)O)cc(OC)c1OC,1.7,-11.2,0.2,0.4%&0.6%,-1.6,-3.8
O=C(CNC(=O)N1CC(=O)Nc2ccccc21)NCc1cccc(Cl)c1,-0.9,1.3,-0.5,-0.5%,-0.7,12.6
O=C(CSc1nnc(CNC(=O)c2c(F)cccc2Cl)o1)Nc1ccc2c(c1)OCCO2,-6.5,-4.1,1.2,-0.8%,-3.5,28.7
O=C(Nc1cccc(-c2ccc(N3CCOCC3)nn2)c1)c1ccc(Cl)cc1,-0.7,7.6,-0.1,?,0.5,3.6
CCOC(CCn1c(SCC(=O)NC2CCCC2)nc2ccccc2c1=O)OCC,0.5,3.7,-0.1,4.1%,-1.8,6.4
Cc1ccc(SCc2ccc(C(=O)Nc3cc([N+](=O)[O-])ccc3C)cc2)cc1,-0.9,-3.6,2.7,.,-1.3,29.9
Cc1ccc(S(=O)(=O)C(CNC(=O)C(=O)NCCc2ccccc2)c2cccs2)cc1 (stereo not given),.,.,-0.7,4.4%,.,7.1
CC(=O)c1ccc(N2CCN(C(=O)c3cc(S(=O)(=O)N4CCOCC4)ccc3C)CC2)cc1,-0.5,3.8,0.6,-0.7%,-8.1,?
CCOc1cccc2sc(NC(=O)c3ccc(Br)s3)nc12,29.3,0.0,-0.3,12.7%,1.6,-22.3
COc1ccc(S(=O)(=O)n2c([N+](=O)[O-])cnc2C)cc1OC,0.2,1.0,-0.1,-1.3%,-4.0,6.8
CC1CCCC(C)N1c1ccc(S(=O)(=O)N2CCOCC2)cc1Cl (stereo not given),-3.7,1.7,2.2,9.7%,-1.7,41.3
CCCCn1c(=O)c2oc3ccccc3c2n(CC(=O)Nc2cccc(Cl)c2C)c1=O,.,.,0.1,0.3%,.,-2.9
CCN(CC)CCNC(=O)CCn1nc(-c2ccc(Cl)cc2)ccc1=O,6.4,3.3,3.7,-2.6%,2.6,47.4
COC(=O)CNC(=O)c1cc(OC)cc(OC)c1,1.7,11.2,-0.4,-0.5%,2.6,-2.0
Cc1ccc(S(=O)(=O)N2CCOCC2)cc1NC(=O)COC(=O)Cn1c(C)csc1=O,-1.0,-0.6,-0.2,0.3%,-4.8,16.4
O=C(CCc1ccccc1)OCCN1CCOCC1,0.6,0.1,-0.9,2.2%,-1.9,-6.7
Cc1nc(CC(=O)Nc2ccc(C(N)=O)cc2)cs1,.,.,1.3,-1.0%,.,-12.5
c1cc(CNCCNCc2ccncc2)ccn1,16.3,-1.4,-0.2,-0.7%,-2.4,-3.7
O=c1cc(O)c(-c2cccc(C(F)(F)F)c2)c(Cl)[nH]1,2.3,.,1.0,0.1%,-4.1,36.8
COc1ccc(-c2nnc(SCC(=O)c3ccc(O)cc3O)o2)cc1,6.4,4.7,-0.4,4.0%,-5.2,16.6
CCCCN(C)CCNS(=O)(=O)c1ccc2c(c1)n(C)c(=O)c(=O)n2C,0.5,-1.5,0.1,2.9%,-2.9,3.3
O=C(Nc1nc(-c2ccccc2)ns1)c1ccncc1,2.2,5.6,.,0.9%,-3.9,.
Cc1ccc(S(=O)(=O)NCCCCCC(=O)Nc2ccccn2)cc1,-0.3,2.2,1.3,1.1%[38.3 µM],0.2,26.6

# Looked up by compound from the list above (2):
SMILES,Six1-Eya2 blk,CtBP-E1A inh,TRPML1 agonist,PINK1 modulator,D2 ag,TRPML1 blocker
C#Cc1ccc([C@H]2C=C(C(=O)NC3CC3)O[C@@H](OCC)[C@@H]2CCCO)cc1,-1.7,4.5,-1.0,1.6%,-0.3,0.8
O=c1cc(O)c(-c2cccc(C(F)(F)F)c2)c(Cl)[nH]1,2.3,.,1.0,0.1%,-4.1,36.8

# The listing continues:
SMILES,Six1-Eya2 blk,CtBP-E1A inh,TRPML1 agonist,PINK1 modulator,D2 ag,TRPML1 blocker
NNC(=O)c1csc(CS(=O)(=O)c2ccc(Cl)cc2)n1,-2.6,4.2,0.3,2.2%,-2.0,6.6
O=C(CNC(=O)c1ccccc1)OCc1cc(=O)n2nc(C3CCCCC3)sc2n1,.,.,-1.1,-0.7%,.,6.1
O=C(OCc1cccc([N+](=O)[O-])c1)c1cccnc1Cl,-0.8,1.7,-0.2,0.6%,-1.8,-7.4
N#Cc1c(-c2ccccc2)oc(=O)c2ccccc12,3.3,.,-0.7,-0.6%,1.1,-6.7
CC(=O)Nc1ccc(CN(C)c2c(C)nc3ccc(C(=O)N4CCN(C(=O)c5ccco5)CC4)cn23)cc1,-3.6,0.3,-0.7,4.6%,4.1,.
COc1cc(C(=O)Nc2cc(C(F)(F)F)ccc2Cl)cc(OC)c1OC,10.3,-10.7,0.3,5.3%,-6.9,2.9
COc1ccc(Cc2nc3ccc(C(=O)NCc4ncc(C)[nH]4)cc3o2)cc1OC,-1.6,-3.0,-0.3,-0.6%,-2.8,-7.4
O=C(COc1cccc(C(F)(F)F)c1)NCC(c1ccco1)N1CCCC1 (stereo not given),-1.5,.,-0.4,0.5%,6.9,6.1
CCc1cccc(NS(=O)(=O)c2ccc(-n3cccn3)cc2)c1,-1.0,0.1,0.8&0.3,3.1%&3.8%,4.7,1.8&-13.2
O=C(CC12CC3CC(CC(C3)C1)C2)N1CCCOC1,-1.5,-0.7,-0.3,5.9%[38.3 µM],-1.3,-7.1
CC(C)(C)OC(=O)C[C@@H]1C/C=C\C[C@@H](CC(=O)NCCO)C(=O)N[C@H](C(C)(C)C)COC1=O,10.4,6.2,-0.6,-1.3%,-1.1,-0.9
O=C(Cn1cnc2c(nnn2-c2ccccc2)c1=O)NCc1ccc(F)cc1,10.8,5.3,-0.2,3.7%,-6.4,-9.5
COc1ccc(-c2noc(=O)n2Cc2ccc(C#N)cc2)cc1,9.8,-1.8,0.3,1.5%,3.1,-15.5
CCc1ccc(NC(=O)COc2ccc(F)cc2C(=O)c2cnn(-c3ccccc3)c2)cc1,-5.8,-2.8,1.7,5.1%,3.6,36.3
CCc1cccc2c(C(=O)COC(=O)C3=NNC(=O)CC3)c[nH]c12,-3.6,0.0,-0.3,-1.7%,-2.6,11.9
COc1ccccc1C(=O)Nc1cccnc1,3.8,4.0,-0.6,1.0%,-1.6,26.3
COc1ccc(OC)c(/C=N/NC(=O)CC(=O)NCc2ccccc2)c1,4.1,8.4,1.4,-0.3%,-2.4,-6.6
COc1cccc(N2CCN(C(=O)c3cc4c(OC)c(OC)c(OC)cc4[nH]3)CC2)c1,-3.9,.,2.0,0.3%,2.0,25.1
OC[C@@H]1CN(Cc2cccc3ccccc23)C[C@H](n2cnc3c(NCc4ccco4)ncnc32)O1,0.0,-8.4,-0.2,0.0%,8.6,.
CC(C)NC(=O)c1cc2c(-c3ccc(Cl)cc3)nn(C)c2s1,-6.0,-0.3,-0.7,5.1%,-2.5,13.6
CCOC(=O)C1=C(CCl)NC(=O)NC1c1ccc2c(c1)OCO2 (stereo not given),-5.2,-2.8,0.4,2.2%,-2.7,-3.7
COC(=O)C1CCN(C2CN(Cc3ccc([N+](=O)[O-])cc3)S(=O)(=O)C2)CC1 (stereo not given),-0.8,5.6,-0.2,1.5%,-3.5,-4.4
O=C(Cc1ccc(Br)cc1)N1CCN(C(=O)c2ccccc2)CC1,5.9,1.7,-0.5,-1.6%,2.0,5.2
CCN(CC)c1ccc(NC(=O)Cn2cc3c(n2)CCC(C)C3)c(C)c1 (stereo not given),-29.7,-22.2,1.9,7.4%,5.1,0.0
CNc1nc2ccccc2n1N,1.8,0.0,-0.3,-0.7%,-4.6,-4.5
CCOCCCn1c(=N)c(C(=O)NCC2CCCO2)cc2c(=O)n3cccc(C)c3nc21 (stereo not given),.,.,-0.9,2.6%,.,37.3
CC1(C)CC(=O)C2=C(C1)c1c(ccc3ccccc13)NC2c1cc([N+](=O)[O-])cc([N+](=O)[O-])c1O (stereo not given),-5.6,-6.9,0.1,1.4%,-6.0,35.0
COC(=O)c1ccc(/C=N/NC(=O)C(=O)NCC2CCCO2)cc1 (stereo not given),-3.2,1.9,-0.3,1.1%,-1.3,6.0
COC(=O)C1=C[C@@H](C(=O)OC)[C@@H]2C3=C(C(=O)[C@@]2(C)NC(=O)c2ccccc2)[C@H](C)C(C(=O)OC)=C(C(=O)OC)[C@@H]3C1,-4.0,-1.3,0.8,0.2%,-0.3,1.5
COc1cc2c(cc1OC)n(Cc1ccc([N+](=O)[O-])cc1)c(=O)n1nc(-c3ccccc3)nc21,.,.,0.9,0.0%,.,13.5

# Rows were taken by chance; any-hit rate near 1%.
